# Bioassay records as filed in PubChem BioAssay.
# Rango dissoc inh – qHTS Assay for Inhibitors of RanGTP induced Rango (Ran-regulated importin-beta cargo) - Importin beta complex dissociation. Snurportin-1 (Homo sapiens) + GTP-binding nuclear protein Ran (Homo sapiens) + Importin …. Biochemical FRET Rango-importin beta, RanGTP-induced dissociation. Potency, µM (series often up to 46.1 µM), for inactives: top-dose activity change, negative = inhibition. 340,000 compounds, 0.071% hits. AID 540253, 2011; active means falling FRET ratio curve, often poorly fitted, with flat reads before Ran was added; inconclusive means other falling curves, or compound fluorescence or quenching; inactive means flat or rising ratio curve;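 further: potency means the concentration at half of the fitted maximal effect; % of control where 0% means no effect; nearly all actives have a fitted effect of over 45% in size; -100% = wells without RanGTP and RCC1; the record marks most hits as doubtful in a second field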
#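 Rango/importin beta premix (0.1/0.25 uM final), PBS + 1 mM DTT + 0.02% Tween-20 + 0.1% BSA; cpd 5 min RT; FRET pre-read; + RanGTP-RCC1 (0.6 uM Ran, 2 mM GTP, 0.2 uM RCC1); 45 min RT; FRET post-read, ex 430, em 486/530 nm.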
# Rango-impB inh – qHTS Assay for Inhibitors of Rango (Ran-regulated importin-beta cargo) - Importin beta complex formation; 340,000 compounds, 0.031% hits; Potency, µM (titrated, usually from 92.2 µM), for inactives: at the highest dose inhibition of complex formation; AID 540263, 2011; Importin subunit beta-1 (Homo sapiens), Q14974; Rango CFP/YFP FRET sensor + importin beta, 45 min; active = rising FRET ratio curve, often small or poorly fitted; inconclusive = mostly compound fluorescence or quenching in the first reads; inactive = flat curves in all reads;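 further: potency means the concentration at half of the fitted maximal effect; 0% = DMSO wells and 100% = buffer wells lacking importin beta; nearly all actives have a fitted effect of over 15% in size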
#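 FRET biosensor (snurportin 1 IBB flanked by EYFP and cerulean), 50 nM, with compound 5 min, then 0.125 microM importin beta in PBS, 1 mM DTT, 0.02% Tween-20, 0.1% BSA. CFP/YFP ratio read after 45 min at room temperature; pre-read flags interference.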
# GLA inh pH 4.5 – qHTS Assay for Inhibitors of Human alpha-Galactosidase at pH 4.5 | purified enzyme, 4-MU-alpha-Gal fluorescence, pH 4.5 | activity change, negative = inhibition, % at 105 µM | 230,000 tested, under 10 active; inconclusive = small, poorly fitted or top-dose-only inhibition, or a rising curve; inactive = flat fitted curve, though single readings scatter; no compound was filed as active;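 further: 0% = full activity with enzyme and -100% = basal without enzyme; dose as in the result columns while the protocol names 77 µM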
# Target sequence (P06280 whole entry, looked up): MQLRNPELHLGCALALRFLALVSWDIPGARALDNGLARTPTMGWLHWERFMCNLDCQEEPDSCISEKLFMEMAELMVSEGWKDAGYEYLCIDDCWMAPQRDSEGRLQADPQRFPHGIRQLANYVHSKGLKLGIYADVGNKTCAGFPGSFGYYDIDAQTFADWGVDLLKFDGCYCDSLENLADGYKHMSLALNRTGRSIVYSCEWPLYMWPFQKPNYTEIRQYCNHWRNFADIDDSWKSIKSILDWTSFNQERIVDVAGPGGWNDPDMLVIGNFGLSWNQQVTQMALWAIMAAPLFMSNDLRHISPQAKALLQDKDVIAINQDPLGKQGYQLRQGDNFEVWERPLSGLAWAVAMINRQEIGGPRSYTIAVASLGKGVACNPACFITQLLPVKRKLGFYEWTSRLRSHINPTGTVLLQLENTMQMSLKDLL
# miR-21 FLuc – qHTS Assay for Modulators of miRNAs and/orActivators of miR-21. Potency, µM (titrated, usually from 38.3 µM), inactives show top-dose reporter change, positive = more light. AID 2288, 2010. 340,000 tested, under 10 active. HeLa miR-21 FLuc reporter, luciferase, 48 h; active = well fitted rising curve with a large enough effect; inconclusive = small, poorly fitted or top-dose-only effect; inactive = no such curve, though single readings can be large or run the other way;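 further: % of control where 0% means no effect; miR-21 action dims this reporter so a rising signal means less miR-21 action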
#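 Using DMEM plus 10% FBS, HeLa miR-21-FLuc cells are incubated with test compounds (final up to about 40uM) for 48 hours; firefly luciferase signal is then imaged following reagent-mediated lysis.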
# Starred values were filed as active, the others as inactive; ? = inconclusive; nt = no result given; & = joins results of further samples.
SMILES,Rango dissoc inh,Rango-impB inh,GLA inh pH 4.5,miR-21 FLuc
C/C(=N\NC(=S)NCc1ccccc1)c1ccc2ccccc2c1OC(F)F,4%,-1.1%,-2,-1%
COc1ccccc1NC(=O)N1CCCC1C(=O)NCc1ccc(F)cc1 (configuration not stated),-1%,2.1%,12,0%
COC(=O)c1cccc(NC(=O)c2ccccc2)c1,3%,-1.4%,-2,-39%
CSc1ccc(CN(C)CC(=O)Nc2c(F)cccc2F)cc1,13%,0.0%,-1,6%
CCc1c(C)nc(N)nc1Cl,-11%,0.3%,10,-3%
Cc1ccc(S(=O)(=O)N(CC(=O)O)Cc2ccco2)cc1,7%,0.2%,-2,7%
COc1ccc([C@H]2[C@H](C(=O)C(C)(C)C)N3N=Cc4ccccc4C3C23C(=O)OC(C)(C)OC3=O)cc1 (some centres not stated),3%,0.4%,-2,-4%
N#CC1(Cc2ccc(Cl)cc2)c2ccccc2C=CN1C(=O)c1ccccc1 (configuration not stated),8%,-3.6%,-4,3%
Nn1c(Cc2cccc3ccccc23)nnc1SCc1ccccc1Cl,1%,0.4%,9,-12%
CCCn1nc(C(=O)NC2CCCC2)c2ccccc2c1=O,-28%,-6.3%,nt,nt
CCc1cc(=O)[nH]c(SCC(=O)N2CCCC2)n1,-3%,-11%,nt,nt
COc1ccccc1NC(=O)Cn1c(CN2CCCCC2)nc2ccccc2c1=O,-10%,4.5%,-11,-1%
Cc1ccc2nc(Nc3ccc(C)c(Cl)c3)c3nncn3c2c1,12%,-1.3%,nt,-7%
COc1ccnc(N2CCN(c3ccccc3)CC2)c1C#N,6%,2.6%,-2,-44%
Nc1ccc(Oc2ccc3c(c2)C(=O)N(CC2CCCO2)C3=O)cc1 (configuration not stated),1%,-1.4%,-16,1%
Cc1ccc(C)c(OC2=NS(=O)(=O)c3ccccc32)c1,-17%,-0.9%,4,0%
COc1cc(Cl)cc(C(c2c(C(=O)O)[nH]c3ccccc23)c2c(C(=O)O)[nH]c3ccccc23)c1O,-13%,0.2%,nt,0%
O=C(NCc1nc2ccccc2[nH]1)C1=C[C@@H](C2CCCCC2)C[C@@H](OCc2ccc(CO)cc2)O1,-2%,1.9%,7,21%
Cc1cc(=O)oc(C)c1C(=O)NCCN1CCOCC1,-17%,4.2%,1,2%
CCOC(=O)c1sc2nc(CSc3ccccc3Cl)[nH]c(=O)c2c1C,-13%,4.7%,8,-3%
O=C(CNC(=O)c1ccco1)N=Nc1c(O)[nH]c2ccc([N+](=O)[O-])cc12,23%,0.3%,nt,-1%
CCOCc1cc(CN2CCC(CCC(=O)NC3CC3)CC2)ccc1OC,10%,0.5%,nt,5%
CCCNC(=O)Cc1c(C)n(C(=O)c2ccc(Cl)cc2)c2ccc(OC)cc12,-6%,1.8%,nt,9%
O=C(Nc1ccncc1)c1ccc2c(c1)C(=O)N(C1CCCCC1)C2=O,12%,-3.1%,-6,12%
CCOc1ccc(Nc2cc(=O)[nH]c(=O)[nH]2)cc1,-1%,4.6%,nt,-3%
SMILES,Rango dissoc inh,Rango-impB inh,GLA inh pH 4.5,miR-21 FLuc
COc1ccc2nc(Cl)cc(Cl)c2c1,0%,0.9%,4,3%
C=C(C)CSc1nnc2n(N)c(=O)c3ccccc3n12,-11%,?,5,-47%
CCOc1ccc(CN(C)C(=O)c2ccc3ccccc3n2)cc1,0%,-1.7%,nt,-19%
COCCCNc1oc(-c2ccccc2Cl)nc1C#N,-11%,0.1%,5,-40%
Cc1c(C(=O)OCC(=O)N2c3ccccc3CC2C)oc2ccccc12 (configuration not stated),2%,0.0%,-1,1%
COC(=O)C1C2C=CC(C3CC23)C1C(=O)OCC(=O)c1ccc(OC)cc1 (configuration not stated),5%,3.1%,5,-5%
Cc1cc(NS(=O)(=O)c2ccc(NC(=O)c3cccnc3)cc2)nc(C)n1,-7%,-2.6%,nt,-2%
Cc1cc(=O)oc2cc(OCC3CC(c4ccccc4)=NO3)ccc12 (configuration not stated),-13%,0.2%,-1,-9%
COc1ccc(S(=O)(=O)N(CC(=O)NCc2ccncc2)c2cc(C)cc(C)c2)cc1OC,0%,1.3%,nt,3%
C=C[C@@H]1c2cc(C)ccc2N(S(=O)(=O)c2ccc(C)cc2)[C@H](c2ccccc2)C1(C#N)C#N,-7%,-1.6%,nt,nt
CCN(CC(=O)NC1CCS(=O)(=O)C1)S(=O)(=O)c1ccccc1 (configuration not stated),-8%,1.9%,-4,-2%
CC(C)(C)c1ccc(C(=O)N2CCC(C(=O)NCCC3=CCCCC3)CC2)cc1,21%,-2.5%,-7,-9%
Cc1cc(C(=O)OCC(=O)N(CC(C)C)c2c(N)n(Cc3ccccc3)c(=O)[nH]c2=O)c(C)o1,-20%,?,nt,nt
CCCNc1c(NS(=O)(=O)c2cccs2)c(=O)oc2ccccc12,14%,1.2%,nt,0%
CC(=O)C1CCC2C3CC(C)C4(O)CC(=O)CCC4(C)C3C(O)CC12C (configuration not stated),-4%,4.2%,nt,nt
Clc1ccc(CSC2=NCCCN2)cc1Cl,0%,1.6%,2,-8%
O=C(COC(=O)c1ccc(F)cc1)NCc1ccc(F)cc1,18%,-3.7%,nt,nt
CCc1ccc(NS(=O)(=O)c2cc3c(cc2C)n(C)c(=O)c(=O)n3C)cc1,2%,0.4%,nt,8%
O=C(O)C(Nc1nc(C(F)(F)F)nc2ccccc12)c1ccccc1 (configuration not stated),1%,2.7%,nt,-2%
COc1cccc(CNC(=O)CN(C)S(=O)(=O)c2ccc3c(c2)c(=O)n(C)c(=O)n3C)c1,-16%,-1.3%,nt,-1%&-7%
C[C@@]12C(=O)N(c3ccccc3)C(=O)N1[C@@H]1c3ccccc3OC[C@@H]1[C@H]2c1ccccc1,5%,-1.0%,nt,nt
O=C(CCn1c(=O)sc2ccccc21)NCCCn1ccnc1,0%,-2.4%,5,-10%
CCOc1ccc(S(=O)(=O)NCCC(=O)NCC(c2ccc(OC)cc2)N2CCCC2)cc1 (configuration not stated),-10%,-0.1%,nt,nt
O=C1Nc2c(Cl)cc(Cl)cc2C1=O,-17%,2.8%,nt,nt
CC(C)(C)c1ccc(-c2nnc(SCC(=O)O)n2N)cc1,13%,-1.9%,1,-2%
SMILES,Rango dissoc inh,Rango-impB inh,GLA inh pH 4.5,miR-21 FLuc
CC(Sc1nc(N)cc(N)n1)C(=O)NCC1CCCO1 (configuration not stated),18%,6.8%,nt,nt
Cc1cc(OCCCn2cnc3ccccc3c2=O)ccc1[N+](=O)[O-],0%,-4.9%,1,-3%
CC(C)Oc1ccc(C(CC(=O)O)NC(=O)CSc2ncn[nH]2)cc1 (configuration not stated),-11%,-0.4%,-26,1%
COCCCNC(=O)CN(c1cc(Cl)ccc1OC)S(C)(=O)=O,5%,-0.1%,12,-1%
CCOC(=O)c1c(C)n(C)c2ccc(O)c(CN3CCCCC3)c12,-13%,-0.4%,-6,-1%
O=S(=O)(c1ccc(Cl)cc1)n1cccn1,5%,-3.5%,-2,1%
CNC(=O)CC1C(=O)N(C)C(=S)N1NC(=O)c1ccccc1 (configuration not stated),0%,3.3%,3,1%
O=C(CCc1ccccc1)Nc1ccc(NS(=O)(=O)c2ccccc2)cc1,4%,0.0%,nt,0%
O=C(CCc1ccccc1)NNC(=O)c1ccco1,-6%,5.4%,-20,1%
CCOCc1nnc(NC(=O)c2ccco2)s1,4%,4.3%,-6,-5%
CC1=C(C(=O)OC(C)C)C(C)NC(=O)N1 (configuration not stated),15%,1.0%,13,-30%
CCCCCOC(=O)NCCOC(=O)Nc1ccc(C(=O)OCC)cc1,10%,0.1%,0,3%
CCOc1ccc(S(=O)(=O)Nc2ccn(C)n2)cc1,1%,-0.8%,nt,nt
CN(C)c1ccc(-c2nnn(CC(=O)NCc3ccc4c(c3)OCO4)n2)cc1,-1%,1.2%,6,-31%
Cc1nn(Cc2noc(C(=O)NCC3CCCO3)n2)c(C)c1Br (configuration not stated),1%,1.2%,nt,0%
CCN1CCN(c2cc(C)c3cc(NC(=O)c4ccc5c(c4)OCO5)ccc3n2)CC1,8%,-1.2%,0,-49%
C=CCn1c(SCC(=O)NC(=O)NCc2ccco2)nc2sc(C)c(C)c2c1=O,-11%,0.6%,5,-7%
Cc1ccc(-c2noc(CCC(=O)N3CCCC3)n2)cc1,-8%,-1.0%,3,-33%
COc1ccccc1NC(=O)CC(=O)CSc1nnc(-c2ccc(C)cc2)n1-c1ccccc1,-1%,-2.0%,4,-11%
CC(C)(C)C(=O)N(Cc1nc2ccccc2c(=O)[nH]1)Cc1cccs1,0%,-0.6%,-1,-4%
O=C(NC1CCCC1)c1ccc(CS(=O)(=O)Cc2ccccc2F)o1,-4%,5.5%,nt,2%
COc1ccc(NC(=O)C(c2cc3c(cc2[N+](=O)[O-])OCO3)N(C)C)cc1 (configuration not stated),21%,-1.6%,9,-36%
COc1ccccc1-n1cnc2cc(C(=O)NC3CCCC3)ccc21,-1%,-0.7%,0,-14%
CC(C)C[C@H](NC(=O)[C@@H]1Cc2c([nH]c3ccccc23)C2c3ccccc3C(=O)N21)C(=O)NCC1CCCO1 (some centres not stated),?,?,nt,8%
O=C(NNC(=O)C1CCC1)c1cccc(Cl)c1,-4%,-0.6%,nt,nt
SMILES,Rango dissoc inh,Rango-impB inh,GLA inh pH 4.5,miR-21 FLuc
O=C(N/N=C/c1ccc(O)cc1)c1cc(-c2ccccc2)nc2ccccc12,-27%,0.3%,nt,12%
O=C(Nc1ccc2c(c1)OCO2)Nc1ccccn1,10%,0.7%,5,-50%
CCOCCn1c(=NC(=O)c2cc(Cl)sc2Cl)sc2cc(S(N)(=O)=O)ccc21,nt,nt,4,-3%
COc1ccc(S(=O)(=O)N(CC(=O)NCc2ccccn2)c2ccc(Cl)cc2)cc1,-3%,2.1%,nt,0%
COc1ccc(NC(=O)CCCN(C)S(=O)(=O)c2ccc(C)cc2)cc1,-9%,-3.6%,-11,-2%
CC(=O)c1ccc(OCC(=O)NC2CCS(=O)(=O)C2)cc1 (configuration not stated),0%,-4.1%,5,-2%
Cc1ccc(-c2noc(CN3CCOCC3)n2)cc1,4%,2.1%,11,-53%
CC1CCCN(C(=O)C2c3ccccc3C(=O)N3CCc4ccccc4C23)C1 (configuration not stated),1%,-1.0%,0,-1%
CN1CCN(C(=O)CCn2c(=O)c3cccn3c3cccnc32)CC1,11%,5.0%,nt,0%
Cc1cc(C)cc(C(=O)Nc2ccc(NC(=O)c3cccs3)cc2)c1,-4%,-0.9%,nt,12%
COc1ccccc1NCc1cc(=O)oc2c(C)c(O)ccc12,?,?,nt,-23%
CC(C)Cn1c(N)c(C(=O)COC(=O)c2ccc3c(c2)OCCO3)c(=O)n(C)c1=O,4%,-3.4%,-10,14%
CCOC(=O)c1c(C)[nH]c(C(=O)OCC(=O)N(CC(C)C)c2c(N)n(Cc3ccccc3)c(=O)[nH]c2=O)c1C,0%,?,nt,nt
Cc1cccc(N(CC(=O)Nc2cccnc2)S(C)(=O)=O)c1,4%,-4.1%,2,2%
O=C(CSc1nc2ccccc2o1)N1CCN(S(=O)(=O)c2ccc3ccccc3c2)CC1,-14%,5.5%,0,-3%
O=[N+]([O-])c1ccc(Cl)c(/C=N/n2c(COc3ccccc3)n[nH]c2=S)c1,10%,1.0%,4,-1%

# This is a subset. The share of hits here may be higher or lower than overall.
